Assay outcomes (PubChem BioAssay)
KCNQ2 pot = potentiators of rat KCNQ2 potassium channel; actives 0.54% (n = 310,000); B-score at 10 µM; CHO-K1 KCNQ2, FluxOR thallium flux fluorescence; active compounds read high; Potassium voltage-gated channel subfamily KQT member 2 (Rattus norvegicus), O88943;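 active means fluorescence ratio B-score at least 3 SD of library B-scores, with initial fluorescence B-score within 3 SD, cut at about 5.3 in these data; same plate scores as AID 2156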;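 further: B-score of peak minus minimum over baseline fluorescence ratio after K+ and Tl+ stimulus; positive B-score means potentiation of KCNQ2 with more thallium influx and brighter signal; only the inactives scoring about 0 or higher are listed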
Target sequence (O88943 whole entry, looked up): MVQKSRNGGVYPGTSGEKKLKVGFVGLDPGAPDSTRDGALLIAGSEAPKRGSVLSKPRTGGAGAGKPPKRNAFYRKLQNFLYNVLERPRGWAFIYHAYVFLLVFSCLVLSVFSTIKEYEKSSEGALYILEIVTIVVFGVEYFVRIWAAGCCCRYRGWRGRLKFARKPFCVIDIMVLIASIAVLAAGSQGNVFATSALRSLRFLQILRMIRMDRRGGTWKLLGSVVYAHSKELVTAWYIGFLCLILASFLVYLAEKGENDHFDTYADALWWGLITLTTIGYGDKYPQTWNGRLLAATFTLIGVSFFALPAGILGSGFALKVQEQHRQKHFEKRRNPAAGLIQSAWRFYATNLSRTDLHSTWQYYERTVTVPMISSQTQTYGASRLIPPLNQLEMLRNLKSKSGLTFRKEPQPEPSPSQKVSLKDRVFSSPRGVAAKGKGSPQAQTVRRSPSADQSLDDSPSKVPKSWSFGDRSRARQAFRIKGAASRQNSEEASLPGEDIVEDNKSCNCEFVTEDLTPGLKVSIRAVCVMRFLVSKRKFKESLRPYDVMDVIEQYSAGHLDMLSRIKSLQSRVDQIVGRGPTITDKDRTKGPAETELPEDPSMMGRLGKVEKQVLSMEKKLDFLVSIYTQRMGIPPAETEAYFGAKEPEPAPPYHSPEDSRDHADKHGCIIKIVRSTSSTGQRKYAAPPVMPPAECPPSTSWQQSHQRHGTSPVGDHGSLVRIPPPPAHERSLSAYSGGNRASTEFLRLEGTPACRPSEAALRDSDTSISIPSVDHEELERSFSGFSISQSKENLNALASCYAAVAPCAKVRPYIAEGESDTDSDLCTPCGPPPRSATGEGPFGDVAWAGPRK
KCNQ2 pot baseline = recorded beside KCNQ2 pot, whose call it bears; B-score; compound at 10 µM; measured here: initial fluorescence intensity artifact check;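 brightness before thallium and not channel activity; 0 = typical well and far values either way flag optical interference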
* = called active by the depositor.

SMILES	KCNQ2 pot	KCNQ2 pot baseline
Cc1ccc(S(=O)(=O)NCC(=O)N(CC(=O)NCC2CCCO2)c2cccc(F)c2)cc1 (centres undefined)	0.63	0.26
CCOC(=O)N1CCN(S(=O)(=O)c2ccc(C(=O)Nc3nnc(C)o3)cc2)CC1	0.09	-1.69
O=C(NCc1ccco1)c1cc2ccccc2o1	0.01	-0.01
O=S(=O)(N/N=C/c1ccc(N2CCOCC2)cc1)c1ccc(Br)cc1	1.78	-3.11
CCOc1ccc(NC(=S)NCc2ccco2)cc1	1.53	-0.35
COc1ccc(NC(=O)CCCSc2ccccc2)cc1S(N)(=O)=O	1.61	1.31
Nn1c(SCc2cn3ccccc3n2)nnc1-c1ccncc1	1.82	-1.04
COc1ccc(/C=C/S(=O)(=O)NCc2ccccc2)cc1OC	1.84	0.03
O=C(NCC1CCCO1)C1CCCN(S(=O)(=O)c2cccc3nsnc23)C1 (centres undefined)	0.85	-1.08
CC(/C=N/NC(=O)c1ccncc1)=C\c1ccc(C(C)C)cc1	0.32	-0.79
Cc1cc(C)n2nc(C(=O)NCc3ccco3)nc2n1	1	0.96
COc1cccc(CNS(=O)(=O)c2cc(CN3C(=O)c4cccnc4C3=O)ccc2OC)c1	0.37	-0.44
COC(=O)c1ccc(CSc2ccc3nnc(-c4ccc(OC)c(OC)c4)n3n2)o1	0.59	0.63
CCN(CC(=O)Nc1ccc(NC(C)=O)cc1)C(=O)C1CC(=O)N(CCc2ccc(OC)c(OC)c2)C1 (centres undefined)	0.76	0.9
Cc1cccc2cc(/C=N/Nc3ccc(C(=O)O)cc3)c(Cl)nc12	2.37	-0.16
Cc1sc2ncnc(NCCN3CCOCC3)c2c1C	1.64	-0.6
C=CCC(=O)NC1CC(C)(C)Cc2c1cnn2-c1ccc(C)cc1 (centres undefined)	0.45	-0.78
Cc1ccc(C)c(OC(=O)CN2C(=O)c3ccccc3C2=O)c1	1.53	0.81
COc1ccc(C(=O)CN2C(=O)NC3(CCc4ccccc43)C2=O)c(OC)c1 (centres undefined)	1.9	-0.45
O=C(CCOc1ccccc1)Nc1nnc(-c2ccc3c(c2)OCCO3)o1	1.58	1.77
Cc1ccc(/C=N/NC(=O)CNC(=O)c2cccc([N+](=O)[O-])c2C)o1	3.19	-0.01
Cn1cccc1C1C(C#N)=C(N)OC2=C1C(=O)CC(C)(C)C2 (centres undefined)	1.5	0.02
CCN(CC)S(=O)(=O)c1cccc(NC(=O)c2ccc(Br)cc2)c1	0.47	1.05
Cc1c(NC(=O)c2cc(-c3cccs3)on2)c(=O)n(-c2ccccc2)n1C	1.94	-0.22
O=C(O)C(CC1CCCCC1)N1CCS(=O)(=O)CC1 (centres undefined)	0.05	2.78
Cc1cc(C)c(NC(=O)CNC(=O)COC(=O)/C=C/c2cccs2)c(C)c1	1.83	0.55
CC(Sc1nnc(C2CCCCC2)n1N)C(=O)NCc1ccc2c(c1)OCO2 (centres undefined)	0.77	0.23
CCN(Cc1ccccc1)C(=O)CSc1ccccc1C(=O)O	0.05	0.16
O=C(c1cnccn1)N1CCc2ccccc2C1	0.7	0.7
Nc1cc(C(=O)OCC(=O)NCc2ccc(F)cc2)ccc1Cl	1.26	-0.37
Fc1ccc(NC(=S)Nc2ccc(Cl)cc2)cc1	0.4	0.04
NS(=O)(=O)c1ccc(CCNC(=O)CNC(=O)c2ccccc2Br)cc1	1.39	0.72
COc1cc(NS(=O)(=O)c2cccc3nsnc23)c(C(=O)O)cc1OC	0.97	1.71
O=C(Nc1nc2c(F)cc(F)cc2s1)c1ccccn1	2.22	1.9
COc1ccccc1C(=O)N/C(N)=N/c1nc2ccccc2o1	0.25	0.7
CCOC(=O)N1CCN(C(=S)Nc2ccccc2C(C)C)CC1	0.84	-2.13
COc1ccc(NC(=S)N2CCC(c3ccccc3)C2)cc1 (centres undefined)	0.91	0.38
CCOC(=O)N1CCC(N2CCN(Cc3ccc(F)c(F)c3)C(CCO)C2)CC1 (centres undefined)	0.32	-1.39
CCCC(=O)c1cc2ccccc2oc1=O	1.25	1.33
O=C1Nc2ccccc2OC1CC(=O)N1CCCC1 (centres undefined)	0.73	0.4

An excerpt of these results, with two lines to a compound:
Results follow in this order: KCNQ2 pot, KCNQ2 pot baseline
- Fc1ccc(NC(=S)Nc2ccc(Cl)cc2)cc1
    0.4, 0.04
- NS(=O)(=O)c1ccc(CCNC(=O)CNC(=O)c2ccccc2Br)cc1
    1.39, 0.72
- COc1cc(NS(=O)(=O)c2cccc3nsnc23)c(C(=O)O)cc1OC
    0.97, 1.71
- O=C(Nc1nc2c(F)cc(F)cc2s1)c1ccccn1
    2.22, 1.9
- COc1ccccc1C(=O)N/C(N)=N/c1nc2ccccc2o1
    0.25, 0.7
- CCOC(=O)N1CCN(C(=S)Nc2ccccc2C(C)C)CC1
    0.84, -2.13
- COc1ccc(NC(=S)N2CCC(c3ccccc3)C2)cc1 (centres undefined)
    0.91, 0.38

Further structures follow.
SMILES	KCNQ2 pot	KCNQ2 pot baseline
Cc1ccc(NC(=O)CSc2nnc(-c3cc(C)[nH]n3)n2N)cc1	0.36	-0.05
CCn1c2ccccc2c2nc3ccccc3nc21	0.46	-0.18
CC(=O)N1CCN(c2ccccc2NC(=O)c2ccc(-c3cccc([N+](=O)[O-])c3)o2)CC1	0.23	-0.14
Cn1ncc(N)c1C(=O)Nc1cccc(C(F)(F)F)c1	0.02	1.03
CCc1ccc(NC(=O)c2ccc3c(=O)n4c(nc3c2)CCCCC4)cc1	2.72	0.84
O=C(COC(=O)c1cccc(O)c1)Nc1ccc(OC(F)F)cc1	0.88	1.59
C=CCSc1nnc2c(n1)OC=Nc1ccccc1-2	1.83	-1.19
N#C/C(N=Nc1ccccc1O)=N\Nc1ccccc1O	4.38	-0.65
COc1cc(C(=O)NCC(=O)OCn2nnc3ccccc3c2=O)cc(OC)c1OC	0.21	-0.43
O=C(CS(=O)(=O)c1cn(CC(=O)N2CCOCC2)c2ccccc12)NCc1ccccc1	0.14	0.02
CCC(=O)NC(=S)Nc1ccc(N2CCOCC2)cc1	0.5	0.76
COc1ccc(CNC(=O)C2(C)Cc3ccccc3C(=O)O2)cc1 (centres undefined)	0.48	1.06
c1ccc(CCN2CN=C(Nc3nc4ccccc4o3)NC2)cc1	0.47	1.56
COc1ccc(CC(=O)Nc2ccncc2Cl)cc1	2.19	-1.39
O=C(O)CCn1c(SCc2cccc3ccccc23)nc2ccccc21	0.86	-0.17
CC(=O)c1cccc(NC(=O)/C(=C\c2ccco2)NC(=O)c2cccs2)c1	0.34	-0.93
CCOC(=O)c1ccc(NC(=O)N2CCN(C(=O)c3ccco3)CC2)cc1	1.02	-0.11
COc1ccc(N=C2SC(CC(=O)Nc3ccccc3)C(=O)N2Cc2ccccn2)cc1 (centres undefined)	0.38	0.97
COc1ccc(/C=N/NC(=O)c2cnccn2)cc1O	0.59	-0.54
CCCCCCc1c(O)nc(SCCN(C)C)[nH]c1=O	1.98	0.34
COc1cc(/C=C\C(=O)NCc2ccc3[nH]c(C)cc3c2)cc(OC)c1OC	1.87	-0.49
Cc1ccc(S(=O)(=O)NN=C2C3CC4CC(C3)CC2C4)cc1	1.24	0.18
CC(NCC(O)COCc1ccc(Cl)cc1)c1ccccc1 (centres undefined)	0.83	1.06
CCOc1ccc(C(=S)NC2CCCCC2)cc1	0.31	-0.32
COc1ccc(C(=O)NCC(=O)N2CCc3ccccc3C2)cc1	3.13	-1.16
C#Cc1cccc(-n2nnc(C(=O)OC)c2-c2ccccc2)c1	1.14	0.27
Cc1ccccc1N(C(=O)c1snc(C(N)=O)c1N)C(C(=O)NCC1CCCO1)c1ccc(N(C)C)cc1 (centres undefined)	0.53	2
CC1(C)CC(NC(=O)COc2ccccc2Cl)CC(C)(C)N1	0.5	-0.94
CCOc1ccc(C(=O)Nc2cccc(-c3ccc(N4CCOCC4)nn3)c2)cc1OCC	0.91	1.38
CCn1c(=O)cc(O)c2ccccc21	0.02	0.95
CCOC(=O)c1c(NC(=O)CN2CCN(C(=O)c3ccco3)CC2)sc(C)c1C	0.87	-1.51
CCOc1ccc(S(=O)(=O)N2CCC(C(=O)NCc3ccco3)CC2)cc1	0.16	-0.01
COc1cc2[nH]c(=S)n(Cc3cccs3)c(=O)c2cc1OC	0.26	0.65
CCOc1ccccc1C(=O)Nc1ccc(S(=O)(=O)N2CCOCC2)cc1	1.78	1.51
COc1ccc(NC2=CC(=S)NC(C)(C)C2)cc1	0.05	1.15
COCCCNC(=S)N/N=C/c1ccc(N(C)C)cc1Cl	0.47	0.24
CN1C(=O)/C(=C/c2cn(CC(=O)N3CCCCC3)c3ccccc23)NC1=S	0.1	0.03
CCOc1ccc(NS(=O)(=O)c2ccc(C(=O)NCCCN3CCCC3=O)cc2)cc1	1.22	0.03
COc1ccc(C2/C=C\CN(C(=O)OCc3ccccc3)CC(=O)N2Cc2ccc(F)cc2)cc1 (centres undefined)	0.67	-0.04
COc1ccc(-c2c(NC(C)=O)n(C)c3ccccc3c2=O)cc1	0.32	1.06
CCCCCn1c(=O)[nH]c2cc(C(=O)NCCCN(CC)CC)ccc2c1=O	0.73	2.54
COc1cc2c(c(OC)c1OC)-c1c(cc(OC)c(OC)c1OC)C[C@](C)(O)[C@@H](C)C2	1.21	1.99
CCOC(=O)CSc1nc2ccsc2c(=O)[nH]1	0.01	0.3
COc1ccc(/C=N/NC(=O)c2ccn[nH]2)cc1CSc1ccccn1	0.01	1.58
O=C(Nc1ccc(F)cc1)c1ccccc1S(=O)(=O)c1ccccc1[N+](=O)[O-]	0.65	0.13
Nc1ccn(-c2ccc(Cl)cc2)c(=O)c1	0.06	0.13
O=C(COC(=O)CCN1C(=O)c2ccccc2C1=O)Nc1ccc(S(=O)(=O)N2CCCC2)cc1	1.66	-1.25
COc1ccc(S(=O)(=O)NC(C)C(=O)NCc2ccncc2)cc1OC (centres undefined)	0.01	0.34
O=C(CCC(=O)OCc1cccc([N+](=O)[O-])c1)Nc1ccc(F)cc1	0.65	0.13
COCCN(C(=O)CSc1nnc(-c2ccccc2F)o1)c1c(N)n(CC(C)C)c(=O)[nH]c1=O	0.03	-0.01
(list continues)
SMILES	KCNQ2 pot	KCNQ2 pot baseline
Cc1cc(C(=O)Nc2sc3c(c2C#N)CCC(C)C3)no1 (centres undefined)	0.19	-1.75
COCCn1c(C)cc(C(=O)COc2cccnc2[N+](=O)[O-])c1C	0.14	1.52
Cc1snnc1C(=O)NC(=S)Nc1ccccc1	5.95*	0.65*
CCC(c1nnc(SCC(=O)Nc2ccc(N3CCOCC3)cc2)n1Cc1ccccc1)N(C)C (centres undefined)	0.52	-1.45
O=C(C1CCN(Cc2nc(Cc3cccc(F)c3)no2)CC1)N1CCOCC1	0.11	-1.41
COc1cccc(N2CC(C(=O)Oc3ccc4ccccc4c3)CC2=O)c1 (centres undefined)	0.41	-0.16
CC(=O)NC(CC(=O)NCC(c1ccco1)N(C)C)c1ccccc1 (centres undefined)	0.27	-0.04
O=C(Nc1cccc(-c2nnco2)c1)c1cccs1	0.95	1.66
CCOC(=O)C1(CCOc2ccccc2)CCN(Cc2cnc(C)[nH]2)CC1	1.18	-1.59
O=C(c1ccc2c(c1)OCO2)N(CC1CCCO1)C1(C(=O)NC2CCCC2)CCCCC1 (centres undefined)	1.46	-0.96
O=C(OCC(=O)N1CCc2ccccc21)c1nc(Cl)ccc1Cl	0.9	-0.57
CCn1c(SCC(=O)NC(=O)NCc2ccco2)nc2sc(C)c(C)c2c1=O	5.96*	-0.13*
Cc1cc(C)cc(NC(=O)COc2ccc(C(=S)N3CCOCC3)cc2)c1	0.06	0.01
CC(Sc1ccccc1)C(=O)NNC(=O)c1ccncc1 (centres undefined)	0.36	3.22
O=C(COC(=O)/C=C/c1ccc(OC(F)F)cc1)NCc1cccs1	0.36	0.41
CC(=O)Nc1cccc(N(C)C)c1	0.1	0.62
O=C(N/N=C/C=C/c1ccco1)/C(=C/c1ccccc1)NC(=O)c1ccccc1	1.48	-0.75
COc1ccc2c(c1OC)C(=O)OC2	0.85	-1.05
O=C(O)C1CCCCC1C(=O)Nc1ccccc1C(=O)N1CCN(c2ccc(F)cc2)CC1 (centres undefined)	0.02	-0.8
O=c1[nH]c2ccccc2nc1-c1c[nH]c2ccccc12	0.12	-0.39

Arranged by heavy-atom count (ascending): some entries from above
SMILES	KCNQ2 pot	KCNQ2 pot baseline
CC(=O)Nc1cccc(N(C)C)c1	0.1	0.62
CCn1c(SCC(=O)NC(=O)NCc2ccco2)nc2sc(C)c(C)c2c1=O	5.96*	-0.13*
O=C(N/N=C/C=C/c1ccco1)/C(=C/c1ccccc1)NC(=O)c1ccccc1	1.48	-0.75

(cont.)
SMILES	KCNQ2 pot	KCNQ2 pot baseline
COc1ccc(-c2nn(CCC#N)cc2C(=O)Nc2ccccn2)cc1OC	0.06	-0.83
c1ccc2c(c1)nc(NCCN1CCOCC1)c1nncn12	0.34	-1.83
CCCOc1cccc(C2C(C(=O)c3ccc(C)o3)=C(O)C(=O)N2CCN2CCOCC2)c1 (centres undefined)	0.14	0.84
O=C(NCc1ccccc1F)Nc1ccc([N+](=O)[O-])cc1	0.8	-1.04
Nc1ccccc1OCCOc1ccccc1N	0.38	0.57
COc1ccc(N2C(=O)CC(NCc3ccc(F)cc3)C2=O)cc1 (centres undefined)	0.12	-0.31
C/C(=N\NC(=O)c1c[nH]c2ccccc12)c1ccc(C)o1	0.24	-1.62
COc1ccccc1-c1c(NC(=O)c2ccco2)n(C)c2ccccc2c1=O	1.01	-0.88
CCOC(=O)[C@@H]1[C@H]2COc3ccccc3[C@H]2N2C(=O)N(c3ccc(C)cc3)C(=O)[C@]12C	0.5	-0.68

An excerpt. The share of hits here may be higher or lower than overall.
